# RanGTP-Imp inh: inhibitors of RanGTP-importin-beta interaction, primary screen, biochemical, FRET, CFP-Ran, YFP-importin-beta, homogeneous; inhibition, % (test concentration not listed); AID 2216; 300,000 tested, 1.1% active; cell-free CFP-Ran/YFP-importin-beta FRET ratio;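 active means most replicates above 15%; inconclusive means exactly half above 15%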;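 further: 0% = DMSO wells and 100% = Ran loaded with GDP instead of GTP; wells of about 40 µL received 100 nL stock; the first replicate is given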
# Vif A3G: inhibitors of Vif binding to APOBEC3G peptide, primary screen, biochemical, TR-FRET, GST-Vif 1-94, biotin-A3G peptide, dose response retest (AID 1117319). TR-FRET GST-Vif / biotin-A3G peptide binding; higher % means a stronger effect; test concentration not given here; strong numbers were not always called active. one-dose inhibition, %; IC50 in µM for titrated hits. 260,000 tested, 0.57% active;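 active means above the screen mean plus three standard deviations and confirmed in dose response; inconclusive means results disagree or hit not tested in dose response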;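 further: Vif residues 1-94 fused to GST binding biotinylated APOBEC3G peptide 110-148; 0% = full assay without inhibitor and 100% = GST in place of GST-Vif; retest series ran down from 100 µM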
# UCH37 inh: blocks the human deubiquitinase UCH37; Q9Y5K5; purified proteasome/UCH37, Ub-AMC cleavage fluorescence; inhibition, % (concentration not given with the values); 330,000 tested, 0.33% active;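 active means mean of two replicates above 20%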;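 further: 0% = compound-free wells with enzyme and 100% = wells lacking proteasome; stock transfer was 100 nL into about 20 µL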
# Target sequence (Q9Y5K5 whole entry, looked up): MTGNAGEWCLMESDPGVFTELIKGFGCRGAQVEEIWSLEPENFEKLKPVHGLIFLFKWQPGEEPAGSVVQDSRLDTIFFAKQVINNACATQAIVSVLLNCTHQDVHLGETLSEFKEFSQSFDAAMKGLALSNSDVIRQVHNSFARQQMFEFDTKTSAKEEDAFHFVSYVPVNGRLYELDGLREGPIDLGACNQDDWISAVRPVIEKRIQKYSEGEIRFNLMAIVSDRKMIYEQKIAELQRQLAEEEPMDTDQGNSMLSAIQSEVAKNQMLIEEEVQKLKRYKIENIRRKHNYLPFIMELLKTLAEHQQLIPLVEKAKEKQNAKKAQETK
#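 Material: human UCH37 enzyme supplied as purified proteasome complex. Measure: % inhibition of Ub-AMC cleavage fluorescence. Medium: pH 7.4 Tris-HCl (50 mM) with ovalbumin, ATP-MgCl2, DTT. Times: 30 min preincubation with enzyme, 25 min cleavage at room temperature. Detection: AMC fluorescence intensity at 355/460 nm.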
# HNF4A DNA FP: change in binding of human HNF4 alpha to DNA | P41235 | HNF4a-FITC DNA binding, fluorescence polarization, 1 h | activity change, % at 10 µM | 360,000 tested, 0.3% active; in the data active means activity change above about 30%, passing the limit was not always enough;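 further: controls were the assay level and a saturating level of protein; the project sought stronger binding though the title names inhibitors; some compounds called inactive have numbers as strong as hits; positive values seem to mean higher polarization but the record does not say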
# E coli growth: E. coli growth inhibition; OD600 absorbance (no concentration beside the values); Escherichia coli growth, OD600, 23 h; stronger effect = lower value; 330,000 tested, 0.21% active;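 active means OD600 absorbance below the run mean of sample wells minus 3.6 SD, in any replicate, cut at about 0.56 in these data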;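 further: stock transfer was 300 nL into about 60 µL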
# AF4-AF9 inh: blocks AF4 peptide binding to human AF9; AlphaScreen, biotin-AF4 peptide binding to FLAG-AF9; inhibition, % at 10 µM; 350,000 tested, 0.47% active;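 active means every replicate reaching a set inhibition limit, whatever the replicate mean, cut at about 25% in these data; inconclusive means mean inhibition reaches that limit but some replicates miss it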;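 further: 0% = plate neutral control median and 100% = total signal loss; the record names both 10 and 1 µM as test concentration; the first replicate is given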
# Target sequence (P42568 whole entry, looked up): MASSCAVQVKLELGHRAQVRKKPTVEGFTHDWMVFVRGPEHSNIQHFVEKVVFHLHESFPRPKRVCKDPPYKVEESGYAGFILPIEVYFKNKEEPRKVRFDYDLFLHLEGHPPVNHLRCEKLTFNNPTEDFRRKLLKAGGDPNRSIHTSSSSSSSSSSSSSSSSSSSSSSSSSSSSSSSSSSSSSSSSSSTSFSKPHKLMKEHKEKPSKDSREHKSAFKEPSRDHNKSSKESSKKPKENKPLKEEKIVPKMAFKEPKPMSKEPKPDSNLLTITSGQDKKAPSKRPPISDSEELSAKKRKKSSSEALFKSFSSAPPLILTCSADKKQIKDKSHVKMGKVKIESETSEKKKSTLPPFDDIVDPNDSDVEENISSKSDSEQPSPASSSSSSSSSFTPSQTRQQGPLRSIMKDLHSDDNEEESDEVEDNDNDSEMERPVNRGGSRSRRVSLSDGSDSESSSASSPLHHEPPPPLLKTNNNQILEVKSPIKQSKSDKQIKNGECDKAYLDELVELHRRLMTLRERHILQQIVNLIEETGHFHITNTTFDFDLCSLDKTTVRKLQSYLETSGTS
# FGF22 binding: FGF22 (human) thermal shift binding; calls only at 9.99 µM; recombinant FGF22 thermal shift, SYPRO orange fluorescence; percent of sucrose octasulfate shift, DMSO zero; Q9HCT0; 340,000 tested, 1.5% active;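 active means melting point raised past a set limit in the mean and every replicate; inconclusive means no clear call; three in four hits are not shown here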
# Target sequence (Q9HCT0 whole entry, looked up): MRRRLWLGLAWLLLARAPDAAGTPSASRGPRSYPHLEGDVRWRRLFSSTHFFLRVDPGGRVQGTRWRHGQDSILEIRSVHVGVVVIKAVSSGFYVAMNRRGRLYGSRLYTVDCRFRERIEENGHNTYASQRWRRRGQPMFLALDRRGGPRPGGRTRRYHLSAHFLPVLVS
# An asterisk follows results filed as active; i = inactive; ? = inconclusive; . = no result given. These rows are one share of the data; the hit share may differ from the screen's.
SMILES,RanGTP-Imp inh,Vif A3G,UCH37 inh,HNF4A DNA FP,E coli growth,AF4-AF9 inh,FGF22 binding
O=S(=O)(Nc1ccc2cn[nH]c2c1)c1cc(Br)ccc1Br,.,2%,-1.2,-1.1,0.66,2.8,i
O=C(NC1CCCCCC1)C1CC(=O)N(c2ccc(Cl)cc2)C1 (stereo unspecified),-1.5,.,0.3,-4.3,0.69,-1.7,i
Cc1ccc(C(C)C)c(OCC(=O)NN=C2CCCCCCC2)c1,-0.9,8%,3.9,4.2,0.77,.,.
CCC/C=C(\CCC)C(NC(=O)Cc1ccccc1)c1ccc(C(=O)OC)cc1 (stereo unspecified),1.1,25%,2.9,2.3,.,.,.
CN(C)S(=O)(=O)c1ccc(NC(=O)COc2ncnc3sccc23)cc1,-0.9,-14%,3.3,7.2,0.71,-0.8,i
Cc1ccc(O)c(C2=Nc3ccccc3N=C(c3ccco3)C2)c1,2.7,10%,-1.4,0.5,0.69,.,.
CN(C)CCN(Cc1ccco1)S(=O)(=O)c1ccc(-c2ccc(=O)[nH]n2)s1,-0.3,.,2.3,-3.2,0.61,-5.1,i
Cc1c(C)c2ccc(OS(C)(=O)=O)c(C)c2oc1=O,3.1,6%,-29,2.6,0.71,.,.
O=C(COC(=O)c1cc(=O)c2ccccc2o1)NC1CCCC1,-1.1,9%,-0.6,0.5,0.66,-3.2,i
Cc1ccc(S(=O)(=O)N2CCN(C(=O)c3ccccc3)CC2)c(C)c1NS(C)(=O)=O,-6.7,0%,1.9,-0.8,0.64,-1.0,i
CC(C)CCn1c(N2CCN(c3cccc(Cl)c3)CC2)nc2c1c(=O)[nH]c(=O)n2C,4.0,-2%,0.8,-2.6,0.77,.,.
Cc1ccc(S(=O)(=O)/N=C2/NC(=O)/C(=C/c3cccnc3)S2)cc1,-1.4,-8%,1.6,1.0,.,.,.
CC(OC(=O)c1cc2sccc2n1C)C(=O)NCc1ccc(F)cc1 (stereo unspecified),5.1,-3%,1.6,-4.1,0.72,.,.
COc1ccccc1C1NC(=O)NC(C)=C1C(=O)OCc1ccccc1 (stereo unspecified),-0.4,.,-2.9,0.2,0.6,1.1,i
O=C(O)CCNC(=O)c1ccc(N=Nc2ccc(O)c(C(=O)O)c2)cc1,3.5,.,6.6,.,0.67,.,.
Cn1c(=O)cc(SCC(=O)N2CCCC2)c2ccccc21,1.5,0%,-3.4,3.0,0.7,.,.
CN1C(C(=O)NCc2ccc(OC(F)(F)F)cc2)CC2Cn3c(nc4cc5ccccc5cc43)C21 (stereo unspecified),0.6,-4%,1.9,6.4,0.7,-29,i
O=C(O)CCC(=O)N1CCN(c2ccc(C(=O)c3ccc(F)cc3)cc2)CC1,2.7,4%,13,1.0,0.77,.,.
CC1(C)CC(=O)C=C(NC2CCCCC2)C1,1.7,.,2.8,-4.1,0.68,-1.1,i
CC(C)C1(CCNC(=O)c2cccs2)CCOC(C)(C)C1 (stereo unspecified),2.3,-1%,3.6,-6.3,0.69,-0.2,i
CC(C)Oc1cccc(-c2nnc(SCC(=O)Nc3ccc4c(c3)OCCO4)n2N)c1,-1.6,-2%,1.7,2.5,0.71,.,.
Cc1cc(Br)ccc1NC(=O)CN1C(=S)NC(C)(C)CC1C (stereo unspecified),3.6,4%,1.4,3.4,0.64,0.0,i
Cc1ccc(S(=O)(=O)N2CCN(C(=O)C(C)Cn3nc(C)c(C)c3C)CC2)cc1C (stereo unspecified),?,-1%,3.3,2.2,0.67,0.8,i
CCN(CC)CCNC(=S)NC(=O)c1cn(-c2ccccc2)nc1-c1ccc(OC)cc1,7.0,6%,-0.2,-2.5,0.67,20,i
COc1ccc(CCNC(=O)COC(=O)c2cc(=O)[nH]c3ccccc23)cc1,.,5%,0.0,-3.7,0.73,-11,i

# Overlap with the part before: 4 compounds; new compounds follow.
SMILES,RanGTP-Imp inh,Vif A3G,UCH37 inh,HNF4A DNA FP,E coli growth,AF4-AF9 inh,FGF22 binding
Cc1cc(Br)ccc1NC(=O)CN1C(=S)NC(C)(C)CC1C (stereo unspecified),3.6,4%,1.4,3.4,0.64,0.0,i
Cc1ccc(S(=O)(=O)N2CCN(C(=O)C(C)Cn3nc(C)c(C)c3C)CC2)cc1C (stereo unspecified),?,-1%,3.3,2.2,0.67,0.8,i
CCN(CC)CCNC(=S)NC(=O)c1cn(-c2ccccc2)nc1-c1ccc(OC)cc1,7.0,6%,-0.2,-2.5,0.67,20,i
COc1ccc(CCNC(=O)COC(=O)c2cc(=O)[nH]c3ccccc23)cc1,.,5%,0.0,-3.7,0.73,-11,i
CC[C@@]12C(=O)N(c3ccc(C)cc3)C(=O)N1[C@H](c1ccc(OC)cc1)[C@@H]1C(=O)N(C(C)(C)C)C(=O)[C@@H]12,0.5,.,1.0,-1.1,.,-1.2,i
COCCCN(C(=O)CCOc1ccccc1C)c1c(N)n(Cc2ccccc2)c(=O)[nH]c1=O,3.8,3%,-1.0,-1.9,0.64,-4.3,i
N#Cc1c(Nc2ccccc2)sc(C(=O)C2CC2)c1N,-9.2,.,4.9,-1.1,0.76,-0.9,i
O=C(/C=C/c1cccs1)N1CCN(c2ccc(O)cc2)CC1,2.2,21µM*,4.3,-2.8,0.68,-2.2,i
CN(C)/C=C(/C(=O)c1ccc(Cl)cc1Cl)S(=O)(=O)c1ccc(Cl)cc1,1.2,15%,0.3,-0.1,0.62,.,.
Cc1cc(N2CCC(C)CC2)n2ncc(-c3ccccc3)c2n1,2.4,-1%,-82,-3.9,0.75,.,.
Fc1ccccc1Cn1cc(C(=S)N2CCOCC2)c2ccccc21,-6.1,-6%,-0.5,2.5,0.68,5.5,i
CCOC(=O)CNC(=O)CSc1ncccc1-c1nc2ccccc2[nH]1,-1.4,-6%,.,-1.5,.,2.8,i
CC(NC(=O)Nc1ccccc1)C(c1cccs1)N1CCOCC1 (stereo unspecified),-2.2,9%,0.2,-1.4,0.72,5.4,i
Cc1nc(NC(=O)c2ccc(Br)s2)sc1C(=O)N(C)C,1.2,-4%,9.7,-1.2,0.64,.,.
O=C(NNC(=O)c1cccs1)c1ccc(Br)cc1,0.1,.,1.3,-0.8,0.65,-6.9,i
COc1ccc(COc2ccccc2C(N)=O)cc1F,1.9,6%,1.9,0.2,0.66,0.7,i
CCOC(=O)c1c(C)c(C(=O)Nc2ccc3c(c2)OCO3)c(C)n1C,-7.1,10%,0.7,-0.5,0.73,.,.
COc1ccc(CNC(=O)c2cc3c(C)nc4ccccc4c3o2)c(OC)c1,-3.5,-3%,3.1,5.0,0.76,.,.
CC(=O)NCC(=O)NNC1CC(=O)N(c2cccc(Cl)c2)C1=O (stereo unspecified),5.7,28%,3.6,3.5,0.67,3.6,i
COC(C[C@H](O)[C@@H](C)[C@@H](O)COCc1ccccc1)OC,-0.9,4%,3.5,1.5,.,-5.2,i
CCN(CC)CCNS(=O)(=O)c1ccc(Cl)cc1,-1.0,5%,4.5,-1.1,0.65,.,.
COc1ccccc1Oc1c(C)oc2c(CN3CCN(CCO)CC3)c(O)ccc2c1=O,-1.2,-4%,-381,.,0.75,-3.1,.
CCn1c(O)c(N=NC(=O)c2ccc(CSc3nncn3C)cc2)c2ccccc21,1.7,24%,13,0.2,0.68,.,.
Cc1ccc(S(=O)(=O)N2CCC(C(=O)Nc3ccccc3N3CCCC3)CC2)cc1C,4.6,3%,2.0,-4.8,0.74,4.6,i
COc1cccc(NC(=O)CSc2nnc(NC(=O)C3CCC3)s2)c1,1.8,.,1.0,-1.3,0.65,-1.7,i
CCOC(=O)c1ccc(COC(=O)CNC(=O)CNC(=O)Cc2ccccc2)cc1,-3.1,0%,4.4,4.8,0.69,-1.8,i
Cc1c(NS(=O)(=O)c2cccc(C(=O)NCc3ccc(Cl)cc3)c2)c(=O)n(-c2ccccc2)n1C,-1.5,-3%,1.6,0.9,0.69,.,.
COc1ccc(NS(=O)(=O)c2ccc3nc(COc4ccc(C#N)cc4)[nH]c3c2)cc1,?,.,0.6,1.3,0.68,.,.
COc1ccc(S(=O)(=O)N(C)C)cc1NC(=O)CN1CCN(C(=O)C2CC2)CC1,.,-2%,-0.3,0.1,0.68,1.8,i
# Later entries.
SMILES,RanGTP-Imp inh,Vif A3G,UCH37 inh,HNF4A DNA FP,E coli growth,AF4-AF9 inh,FGF22 binding
Cc1ccc(N2C(=O)N(CC(=O)Nc3cc(F)ccc3C)C(=O)C2C)cc1 (stereo unspecified),3.3,-2%,-1.8,-1.6,0.67,-26,i
CCOC(=O)c1[nH]c(C)c(/C(O)=C2\C(=O)C(=O)N(CCCN(C)C)C2c2cccnc2)c1C (stereo unspecified),0.3,-2%,3.3,0.9,0.75,.,.
CCOc1c2ccc(C(=O)NCc3cc(C(F)(F)F)cc(C(F)(F)F)c3)cc2nn1CCOC,-0.4,-14%,-22,1.2,0.72,-1.9,i
CCCCCCNC(=O)CNC(=S)N(Cc1cccs1)C1CCCCC1,-3.1,12%,5.8,-3.6,0.67,-1.1,i
O=C1COc2ccc(C(=O)COC(=O)CNC(=O)c3ccccc3)cc2N1,2.0,.,-0.2,1.7,0.7,-1.3,i
CCOC(=O)C1CCCN(C(=O)CCC(=O)Nc2ccc3nc(N4CCOCC4)cc(C)c3c2)C1 (stereo unspecified),-1.5,33%,-375,0.6,0.67,.,.
Cc1ccc2[nH]c(=O)c(CN(C)C(=O)c3cccs3)cc2c1,-0.2,0%,-9.5,-1.1,0.66,-1.0,i
C=C1CCN([C@H](C(=O)O)C(C)C)S(=O)(=O)c2ccccc21,3.9,.,-3.3,-3.9,.,0.0,i
Cc1ccc(NCc2nc(SCC(=O)Nc3ccccc3)n[nH]2)cc1,7.4,-2%,1.8,2.8,0.65,-2.4,i
O=C(c1ccc(Cl)cc1)C1CCN(C(=O)NC2CCCCC2)CC1,0.2,0%,1.7,2.1,0.64,.,.
N#CC(C#N)=NNc1ccc(S(=O)(=O)N2CCCCC2)cc1,0.3,-1%,8.2,-0.6,0.69,9.8,i
C[C@]12c3[nH]c4ccccc4c3CCN1C(=O)C(CC(=O)NCCN1CCOCC1)C[C@@H]2C(=O)N1CCCCC1 (stereo partly specified),.,-6%,4.6,4.0,0.71,-1.2,i
C=CCNS(=O)(=O)c1ccc(OCC(=O)OCC)cc1,-0.5,6%,0.7,0.0,0.68,1.9,i
CCCn1c2ccccc2c2cnn(CC(=O)NCCCN3C(C)CCCC3C)c(=O)c21 (stereo unspecified),3.3,.,-14,2.1,0.68,3.0,i
COc1ccc(NS(=O)(=O)c2cccc(C(=O)NCC(c3ccc(OC)cc3)N3CCCCC3)c2)cc1 (stereo unspecified),.,.,.,-3.7,.,6.6,i
Cc1ccc(S(=O)(=O)Nc2cccc(C(=O)NCCCN3CCCC3=O)c2)cc1F,0.0,.,0.8,-0.8,0.69,7.8,i
O=C(CSCC(=O)NC1CC1)Nc1ccccc1,40*,-4%,2.9,0.3,0.77,.,.
CCOC(=O)c1cc(-c2ccccc2)nc2c1c(C)nn2-c1ccccn1,6.1,0%,-122,-0.8,0.76,.,.
CSc1nsc(SC)c1C(=O)N1CCN(S(=O)(=O)c2ccc(C)cc2)C1C(C)C (stereo unspecified),-2.7,-1%,2.2,3.8,0.73,.,.
CCc1nc2c(OCc3c(C)noc3C)cccn2c1N(C=O)Cc1ccccc1,.,.,.,1.1,.,-1.1,i
Cc1nc2ncnn2c(C)c1CCC(=O)NCc1ccc2c(c1)OCO2,?,-11%,3.3,-0.3,0.72,.,.

# Filtered by structure, those above containing a CF3 group.
SMILES,RanGTP-Imp inh,Vif A3G,UCH37 inh,HNF4A DNA FP,E coli growth,AF4-AF9 inh,FGF22 binding
CN1C(C(=O)NCc2ccc(OC(F)(F)F)cc2)CC2Cn3c(nc4cc5ccccc5cc43)C21 (stereo unspecified),0.6,-4%,1.9,6.4,0.7,-29,i
CCOc1c2ccc(C(=O)NCc3cc(C(F)(F)F)cc(C(F)(F)F)c3)cc2nn1CCOC,-0.4,-14%,-22,1.2,0.72,-1.9,i
